Cruzain Triton = cruzain (T. cruzi) inhibition with detergent | purified cruzain, Z-FR-AMC fluorescence, 0.01% Triton | Potency, µM, inactives show max response, negative = inhibition, hits mostly inhibitors | 200,000 tested, 0.43% active | AID 1478;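 note: plate controls were neutral wells for no effect and buffer without enzyme for full effect; nearly all actives have a fitted effect of over 40% in size; top concentration of the series not given in the record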
Target sequence (P25779 123-467 limits assumed): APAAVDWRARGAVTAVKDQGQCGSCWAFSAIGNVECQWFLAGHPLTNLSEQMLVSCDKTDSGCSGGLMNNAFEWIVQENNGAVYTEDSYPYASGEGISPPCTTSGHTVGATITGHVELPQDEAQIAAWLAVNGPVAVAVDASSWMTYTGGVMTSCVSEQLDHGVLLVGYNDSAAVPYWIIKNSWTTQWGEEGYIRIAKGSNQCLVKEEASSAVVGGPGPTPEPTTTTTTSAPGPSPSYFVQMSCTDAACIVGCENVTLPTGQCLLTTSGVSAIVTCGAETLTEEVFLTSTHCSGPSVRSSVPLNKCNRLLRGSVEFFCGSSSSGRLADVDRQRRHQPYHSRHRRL
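Steps: dispense cruzain (1.5 nM final) in acetate buffer pH 5.5 with DTT and 0.01% Triton X-100; pin-transfer compounds; incubate 15 min RT; add Z-FR-AMC (2 uM final); read fluorescence every 30 s, using the 60 s intensity change.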
RE007 growth inh = less growth of the S. pombe RE007 Vpr strain; 360,000 tested, 0.21% active; S. pombe RE007 Vpr strain, BacTiter-Glo ATP luminescence, 24 h; control for the full effect not named in the record; Potency, µM (titrated, usually from 92.2 µM), for the others: at the highest dose activity change, negative = less growth; AID 651644; active = well fitted falling curve with a large enough effect; inconclusive = small, poorly fitted or top-dose-only effect; inactive = no such curve, though single readings can be large or run the other way;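 note: % is set by controls: 0 for no effect and ±100 for the full control effect; nearly all actives have a fitted effect of over 50% in size; the assay follows cell death caused by Vpr and the record does not say whether a fall means rescue or toxicity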
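Fission yeast RE007 carrying one integrated HIV-1 vpr copy, seeded at OD 0.01 in PMG+AL medium with 23 nL pinned compound. Grown 24 h at 30 degrees; viability read by BacTiter-Glo luminescence after 5 min.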
NS1 function inh = inhibitors of influenza NS1 protein function; S. cerevisiae slowed by influenza A NS1, growth recovery by OD600; Potency, µM (titrated, usually from 46.1 µM), for inactives: at the highest dose activity, positive = more growth; 270,000 tested, 0.4% active; active means well fitted rising curve with a large enough effect; inconclusive means small, poorly fitted or top-dose-only effect; inactive means no such curve, though single readings can be large or run the other way; note: nearly all actives have a fitted effect of over 50% in size
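A cell-based growth assay was used: compounds that relieve NS1-induced slow growth of budding yeast raise OD600. Assay medium was yeast nitrogen base with ammonium sulphate and -URA supplement, pH 6.0, with 2% galactose.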
Marburg entry inh = blocks Marburg virus binding to or entry into cells | AID 540276 | Potency, µM (series often up to 37.8 µM), for the others: top-dose activity change, negative = inhibition, usual class: inhibitors | 300,000 tested, 1.8% active | Marburg virus pseudotyped entry inhibition, cell reporter; control for the full effect not named in the record; about a third of the inactives were read at about 46 µM; active = well fitted inhibition curve with a large enough effect; inconclusive = small, poorly fitted or top-dose-only effect, or effect the other way; inactive = flat fitted curve, though single readings scatter; tested in HEK293 cells; about a fifth of its hits are not listed in these tables; note: % is set by controls: 0 for no effect and ±100 for the full control effect; luciferase read-out
Lassa entry inh = Lassa virus entry inhibition. 300,000 tested, 1.2% active. Potency, µM (series often up to 37.9 µM), for the others: at the top dose activity change, negative = inhibition, usual class: inhibitors. Lassa virus pseudotype entry inhibition, cell reporter; control for the full effect not named in the record; active means well fitted inhibition curve with a large enough effect; inconclusive means small, poorly fitted or top-dose-only effect, or effect the other way; inactive means flat fitted curve, though single readings scatter; tested in HEK293 cells; note: % is set by controls: 0 for no effect and ±100 for the full control effect; nearly all actives have a fitted effect of over 50% in size; luciferase read-out
Cruzain noTriton = blocks cruzain activity in detergent-free assay. Potency, µM, inactives show max response, negative = inhibition, hits mostly inhibitors. purified cruzain, Z-FR-AMC fluorescence, no detergent. 200,000 tested, 2.3% active;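 note: plate controls were enzyme without inhibitor for no effect and buffer without enzyme for full effect; nearly all actives have a fitted effect of over 40% in size; top concentration of the series not given in the record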
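Detergent-free condition (0.00005% Triton X-100) in acetate buffer pH 5.5 with DTT. 1.5 nM enzyme and compound were pre-mixed 15 min, then 2 uM Z-FR-AMC substrate added; reaction progress from fluorescence change between first and third reads (60 s).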
2A StopGo = lowers the luciferase signal of an FMDV 2A StopGo reporter | human cells with a luciferase reporter of 2A StopGo recoding; control for the full effect not named in the record | Potency, µM (series often up to 57.9 µM), for the others: at the highest dose signal change, negative = less light | 410,000 tested, 1.2% active; active = well fitted falling curve with a large enough effect; inconclusive = small, poorly fitted or top-dose-only effect; inactive = no such curve, though single readings can be large or run the other way; tested in HEK293T cells; note: % is set by controls: 0 for no effect and ±100 for the full control effect; nearly all actives have a fitted effect of over 45% in size; luciferase light after 4 h
SARS PLpro yeast = blocks SARS-CoV papain-like protease in a yeast assay | S. cerevisiae expressing SARS-CoV PLpro, growth rescue; control for the full effect not named in the record | Potency, µM (doses to about 32.9 µM), for the others: top-dose activity, positive = growth rescue | 330,000 tested, 0.19% active; active means well fitted rising curve with a large enough effect; inconclusive means small, poorly fitted or top-dose-only effect; inactive means no such curve, though single readings can be large or run the other way; note: 0% is about no effect; nearly all actives have a fitted effect of over 55% in size; growth read by luminescence after 48 h
Starred values were filed as active, the others as inactive; ? = inconclusive; / = no result given; & = joins results of further samples; [ ] = remark or other dose. Unless noted, calls come from the whole dose curve; as a rule, active = well fitted curve in the direction sought with a large enough effect; inconclusive = small, poorly fitted or top-dose-only effect, or another doubt; inactive = no such curve, though single readings can be large; an effect the other way counts as inactive or inconclusive. Potency is the fitted concentration of half-maximal effect.

Results follow in this order: Cruzain Triton, RE007 growth inh, NS1 function inh, Marburg entry inh, Lassa entry inh, Cruzain noTriton, 2A StopGo, SARS PLpro yeast
> Cc1cc(/C=C2\NC(=O)N(Cc3ccc(Cl)cc3)C2=O)c(C)n1C
    -2.8%, -8%, 15%, -22%, 9%, ?, -3%, 13%
> CCOC(CCNC(=O)c1cn(C)c(=O)c2c1c1ccccc1n2C)OCC
    /, 1%, 3%, /, /, /, -21%, 0%
> Cc1cccc(OCC(=O)Nc2ccccc2C(=O)OCc2cc(=O)n3ccsc3n2)c1
    0.3%, /, /, /, 15%[46.1 µM], 5%, 11%, /
> Cc1nnc(NCc2ccccc2)c2c1nnn2Cc1ccccc1Cl
    0.9%, /, /, -19%[46.1 µM], 24%[46.1 µM], 9%, -20%, /
> O=C(CSc1ccc(-c2ccco2)nn1)c1ccc(F)cc1
    -10%, -11%, 1%, 2%, 11%, 0%, 13%, -7%
> O=C(Cn1cnc2c(nnn2Cc2ccccc2)c1=O)c1ccccc1
    -3.6%, 11%, 0%, /, /, -2%, -1%, 9%
> O=C(c1ccco1)N1CCN(c2nc(C3CC3)nc3sc4c(c23)CCCC4)CC1
    -6.6%, -4%, -65%, ?, -15%, 10%, ?, -18%
> COc1ccccc1/C=C1/SC(=O)N(CCC(=O)Nc2ccc(S(=O)(=O)Nc3nccs3)cc2)C1=O
    -6.7%, -3%, 16%, 7%, 17%, -1%, 51%[activator], 2%
> COc1ccccc1NC(=S)NC(=O)CC(C)C
    -2.2%, -9%, -5%, 2%, -11%, 1%, 8%, 16%
> Cc1cccc(-n2ncc3c(NCCOCCO)ncnc32)c1
    1.2%, /, /, /, 11%[46.1 µM], -5%, 52%[activator], /
> CCOC(=O)c1ccc(Nc2c(-c3ccc(N(C)C)cc3)nc3nc[nH]n23)cc1
    0.7%, /, /, /, 1%[46.1 µM], -4%, 5%, /
> Cc1ccc(S(=O)(=O)NCCC(=O)NCC(c2cccs2)N2CCOCC2)cc1 (stereo not given)
    /, -3%, /, 0%, 2%, /, -8%, ?
> Fc1ccccc1Oc1nc(-c2ccncc2)nc2ccccc12
    /, -23%, -1%, /, /, /, -30%, 1%
> CCOC(=O)c1c(CSc2ccsc2)n(C)c2cc(Br)c(O)c(CN(C)C)c12
    /, -11%, 17%, /, /, /, ?, 0%
> COc1ccc(CN2C(=O)c3oc4ccccc4c(=O)c3C2c2ccc(O)c(OC)c2)cc1 (stereo not given)
    1.2%, -3%, -3%, /, 20%[46.1 µM], 18%, 46%&61%[activator], -1%
> O=C(NCC(c1cccnc1)N1CCOCC1)c1cccc(Cl)c1 (stereo not given)
    2.7%, -3%, -2%, 6%, 9%, 1%, 3%, 2%
> COc1ccc(C(=O)C[n+]2cccc(C)c2)cc1
    -2.0%, -9%, 4%, 10%, -9%, -2%, -21%, 5%
> CC(C)CCOP(=O)(c1ccc(N(C)C)cc1)C(O)c1ccc(N(C)C)cc1 (stereo not given)
    /, 10%, -4%, -8%, /, /, -20%, 0%
> COc1cccc(C(=O)Oc2ccc3ccc(O)cc3c2)c1
    /, -14%, -25%, /, /, /, 44%[activator], 0%
> O=C(N/N=C/c1c(-c2ccccc2)[nH]c2ccccc12)c1cccnc1
    /, -4%, -8%, /, /, /, 6%, -2%
> Cn1c(=O)n(CC(=O)NCC2CCCO2)c(=O)c2c3c(sc21)CCCC3 (stereo not given)
    /, -3%, -4%, /, /, /, 0%, 0%
> Cc1ccc(C(=O)CSc2n[nH]c(C)n2)cc1
    -3.2%, 0%, -15%, -9%, 0%, -14%, 50%[activator], 0%
> COc1ccccc1OCCn1c(NC(=O)c2ccc(Cl)cc2)nc2ccccc21
    -2.4%, /, /, ?, -7%[46.1 µM], 3%, 14%, /
> CC(C)NS(=O)(=O)c1ccc(CCC(=O)NCc2ccccn2)cc1
    /, -4%, 14%, /, /, /, -12%, 3%
> COc1ccc(Cc2nnc(NC(=O)C3CCN(C(=O)c4ccco4)CC3)s2)cc1
    /, -4%, 15%, -5%&-5%[46.1 µM], ?, /, -10%, 1%
> CCCCN(CC)CCCNC(=O)c1ccc(CSc2nc3ccncc3[nH]2)cc1
    /, -16%, /, 5%[46.1 µM], 5%[46.1 µM], /, -4%, 0%
> Cc1ccc(N(CCCCN2C(=O)c3ccccc3C2=O)C(=O)c2cccc([N+](=O)[O-])c2)cc1
    1.7%, -11%, 3%, -9%, -2%, 10%, -27%, -6%
> COc1ccc2c(c1)c1c3n2CCN(C)C3=NCC1
    -3.4%, -8%, 4%, ?, 8%, 2%, -8%, -1%
> CC(=O)c1sc(NC(=O)c2c(F)cccc2F)nc1C
    -1.3%, 2%, ?, 9%, 12%, 14%, 25%, -4%
> c1ccc(NCC2OCc3ccccc3CO2)cc1
    -2.5%, -19%, 16%, 1%, ?, -2%, 30%, -20%
> N#Cc1cc([N+](=O)[O-])ccc1NCC1CCCO1 (stereo not given)
    /, -5%, -1%, 3%[46.1 µM], 15%, /, -18%, 7%
> Cc1nn(C)c(C)c1NS(=O)(=O)c1ccccc1
    1.3%, 26%, ?, -1%, -8%, -3%, 11%, -1%
> C=CCc1ccc(OCC(O)CO)c(OC)c1 (stereo not given)
    -5.6%, -12%, 4%, -2%, 23%, 4%, 32%[activator], -13%
> COC(=O)c1ccc(N(CC(=O)NCC2CCCO2)C(=O)CCC(=O)Nc2cc(C)on2)cc1 (stereo not given)
    /, -10%, 14%, -19%[46.1 µM], -3%, /, 3%, 14%
> COC(=O)CC1(C(=O)OC)Oc2ccc(Br)cc2C(=O)N1c1cc(Cl)c(Cl)cc1Cl (stereo not given)
    /, 5%, 3%, /, /, /, ?, -3%
> O=C(O)CCCN1C(=O)C2C3CC(C2C1=O)C1C(c2ccccc2)c2sc(=O)n(-c4ccccc4)c2SC31 (stereo not given)
    /, 8%, /, 7%[46.1 µM], 4%[46.1 µM], /, 16%, 0%
> O=C(O)CCc1ccc(-c2ccccc2)o1
    3.1%, ?, -46%, -1%, 2%, -4%, -3%, -33%
> NC(=O)C1CCCN(C(=O)c2ccc(Cl)cc2)C1 (stereo not given)
    -1.8%, 6%, 2%, 4%, 0%, -6%, 1%, 1%
> CN(C)c1nc(Cl)nc(N(C#N)CCOc2ccccc2)n1
    /, -19%, /, ?, ?, /, 14%, -5%
> CCOc1ccc(NC(=O)CC2C(=O)N(c3ccc(C)cc3)C(=O)N2C2CCCCC2)cc1 (stereo not given)
    -5.6%, /, /, 11%[46.1 µM], ?, 12%, 46%[activator], /
> CN1C(=O)CC(c2ccco2)Sc2ccccc21 (stereo not given)
    -6.2%, -2%, 8%, -8%, 11%, 8%, 60%[activator], 5%
> CC(Cc1ccccc1)NC(=O)CC(c1ccccc1)c1ccccc1O (stereo not given)
    /, 4%, -1%, ?, 5.6µM*, /, -29%, -1%
> CCNC(=O)c1ccc(N(C)S(=O)(=O)c2cccs2)cc1
    /, -5%, /, 1%[46.1 µM], 5%[46.1 µM], /, 15%, 2%
> NNC(=O)c1cc2cc(Oc3ccccc3)ccc2[nH]1
    /, 2%, 22%, -25%, -17%, /, 20%, -2%
> COc1ccc(-c2ccc(CCC(=O)O)n2CC(=O)Nc2cccc(OC)c2)cc1
    /, 4%, /, -5%[46.1 µM], ?, /, -13%, 2%
> Cc1nnc(SCC(=O)c2ccc(Cl)cc2)s1
    /, -13%, 3%, 4%[46.1 µM], -7%[46.1 µM], /, 21%, -1%
> CCc1nc(SCC(=O)O)c2c3c(sc2n1)COC(C)(C)C3
    /, 3%, 8%, ?, -26%, /, -7%, 0%
> C=CCNCCCCOc1ccc(OCC)cc1
    2.6%, 6%, 9%, -14%, ?, -2%, 2%, -10%
> CCNC(=O)CC1C(=O)N(c2ccc(F)cc2)C(=O)N1Cc1ccccn1 (stereo not given)
    5.7%, -6%, -2%, 3%, 1%, 6%, 5%, -1%
> Cn1ccs/c1=N\C(=O)Nc1cccc(Cl)c1
    /, -10%, -7%, 15%, ?, /, 48%[activator], -4%
> CCOC(=O)C(=NCCCN1CCOCC1)NNc1cccc(C(F)(F)F)c1
    /, 112%, /, ?, -17%, /, -12%, -6%
> Oc1cccnc1Sc1cccc(C(F)(F)F)c1
    /, ?, /, 4%[46.1 µM], -1%[46.1 µM], /, -14%, /
> Oc1ccc(/C=N/Nc2cccc(Cl)n2)c(O)c1
    /, 2%, -59%, /, /, /, 38%[activator], 3%
> Cc1cc(NC(=O)COC(=O)C(Cc2ccccc2)NC(=O)c2ccco2)no1 (stereo not given)
    28µM*, -16%, -15%, 2%, 2%, 25µM*, -17%, -2%
> COC(=O)C(Cc1ccc(OC(=O)c2ccccc2Cl)cc1)N1Cc2ccccc2C1=O (stereo not given)
    -2.1%, 11%, 17%, ?, ?, 12%, 0%, -4%
> C=CCNC(=S)NNC(=O)c1csc(C)c1CC
    -0.3%, -4%, -9%, ?, 2%, 6%, 4%, -6%
> COn1c(SCc2cccc(Cl)c2)nc2ccccc2c1=O
    2.0%, -8%, -115%, -26%, -26%, -8%, ?, -1%
> O=C(OCC(=O)N1CCOCC1)c1cc(F)c(F)cc1Cl
    /, 7%, 3%, 6%[46.1 µM], 14%[46.1 µM], /, 8%, 1%
> CCCCC(=O)Nc1nn(CC)c2nc3c(C)cccc3cc12
    /, 1%, -6%, -29%, -18%, /, 10%, 1%
> COc1ccc(OC)c(NC(=O)c2cc3cccc(OC)c3oc2=O)c1
    -1.8%, /, /, /, -2%[46.1 µM], -1%, -7%, /
> O=C(COC(=O)c1ccccc1C(=O)c1ccc(Cl)c([N+](=O)[O-])c1)NC1CCCCCC1
    1.1%, 4%, ?, 4.1µM*, 18µM*, -6%, ?, 3.5µM*
> Nc1ccccc1NC(=O)c1ccccc1
    4.5%, -2%, ?, -3%, -6%, 2%, 15%, -1%
> COc1ccc(Cn2ccc3nc(C)c(C(=O)N4CCN(c5cccc(OC)c5)CC4)cc3c2=O)cc1
    -7.1%, /, /, /, ?, ?, ?, /

From PubChem
